# GIV-Gai inh – inhibitors of GIV GBA-motif binding to rat Galpha-i3; P08753; Galpha-i3/FITC-GIV peptide fluorescence polarization, 90 min; hits give low values; scaled: aluminum fluoride 0%, vehicle 100%; percent of control (FP), % (no concentration beside the values); actives 0.42% (n = 210,000); AID 1224905;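 active = replicate mean at 85% of control or lower, very high polarization wells dropped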;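 note: wells of about 15 µL received 100 nL stock; the first replicate is given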
# Target sequence (P08753 whole entry, looked up): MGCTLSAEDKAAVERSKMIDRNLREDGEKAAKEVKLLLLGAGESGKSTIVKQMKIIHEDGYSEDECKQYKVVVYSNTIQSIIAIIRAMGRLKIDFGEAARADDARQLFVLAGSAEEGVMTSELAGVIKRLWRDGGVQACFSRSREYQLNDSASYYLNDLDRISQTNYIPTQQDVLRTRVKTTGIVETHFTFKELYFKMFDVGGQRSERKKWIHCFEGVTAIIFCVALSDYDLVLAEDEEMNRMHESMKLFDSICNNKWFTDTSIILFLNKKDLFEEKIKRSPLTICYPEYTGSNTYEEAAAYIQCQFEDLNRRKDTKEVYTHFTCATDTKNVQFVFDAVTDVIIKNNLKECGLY
# * = called active by the depositor; & = joins results of further samples.
# Sample of the layout (four entries):
GIV-Gai inh,mol
100,O=C(Cn1ncc2c(N3CCOCC3)ncnc21)N1CCC2(CC1)OCCO2
108,CCn1ccnc(NCC(C)C)c1=O
126,O=C(Nc1cccc(Cl)c1)C(Cc1ccccc1)N1C(=O)C2C3c4ccccc4C(c4ccccc43)C2C1=O (configuration not stated)
105,CCCCc1nc2sc3c(N4CCCC4)ncnc3c2c2c1COC(C)(C)C2

# Results, from the start:
GIV-Gai inh,mol
100,O=C(Cn1ncc2c(N3CCOCC3)ncnc21)N1CCC2(CC1)OCCO2
108,CCn1ccnc(NCC(C)C)c1=O
126,O=C(Nc1cccc(Cl)c1)C(Cc1ccccc1)N1C(=O)C2C3c4ccccc4C(c4ccccc43)C2C1=O (configuration not stated)
105,CCCCc1nc2sc3c(N4CCCC4)ncnc3c2c2c1COC(C)(C)C2
124,COc1ccc(OC)c(/C=C2/N=C(c3ccc(OC)c(Br)c3)OC2=O)c1
106,Cc1nnc(-c2c(C)[nH]c(C)c2S(=O)(=O)NC2CCCCC2)o1
100,COc1ccc(NS(=O)(=O)c2c(C)nn(-c3ccc(-c4ccc(C)cc4)nn3)c2C)cc1
103,O=S(=O)(c1ccc(F)c(F)c1)N1CCC(c2noc(-c3cccc(F)c3)n2)CC1
112,COCCN1C(=O)C(=O)/C(=C(/O)c2ccccc2)C1c1cccc(F)c1 (configuration not stated)
113,COC(=O)C1C(=O)NC(SCC(=O)Nc2cccc(Cl)c2C)=C(C#N)C1c1ccccc1Cl (configuration not stated)
110,CCOC(=O)C1=C(C)NC(=O)CC1c1ccc(Cl)cc1Cl (configuration not stated)
111,CCOC(=O)c1c(NC(=O)CSc2nnc(CNC(=O)c3cccs3)n2C2CCCCC2)sc2c1CCC2
100,Cc1cc(C2CCCN2S(=O)(=O)c2ccc(F)c(Cl)c2)on1 (configuration not stated)
105,CN1CCCn2nc(C3CCN(C(=O)C4CCCC4)CC3)cc2C1=O
97,Cc1ccc(NC(=O)NCCC2CCN(S(=O)(=O)c3ccccc3)CC2)c(C)c1

# 6 entries drawn at random from those above:
GIV-Gai inh,mol
97,Cc1ccc(NC(=O)NCCC2CCN(S(=O)(=O)c3ccccc3)CC2)c(C)c1
100,Cc1cc(C2CCCN2S(=O)(=O)c2ccc(F)c(Cl)c2)on1 (configuration not stated)
124,COc1ccc(OC)c(/C=C2/N=C(c3ccc(OC)c(Br)c3)OC2=O)c1
106,Cc1nnc(-c2c(C)[nH]c(C)c2S(=O)(=O)NC2CCCCC2)o1
100,O=C(Cn1ncc2c(N3CCOCC3)ncnc21)N1CCC2(CC1)OCCO2
112,COCCN1C(=O)C(=O)/C(=C(/O)c2ccccc2)C1c1cccc(F)c1 (configuration not stated)

# (next part)
GIV-Gai inh,mol
101,Cc1ccc(Sc2ccc3noc4c3c2C(=O)c2ccccc2-4)cc1
99,Cc1cc(N2CCc3ccccc32)nc(-n2nc(C)cc2C)n1
103,CCOc1ccc(-n2c(/C=C/c3cccc([N+](=O)[O-])c3)nc3cc(OC)c(OC)cc3c2=O)cc1
107,COC(=O)c1cc(Nc2ncnc3c2cnn3-c2ccc(Cl)cc2)cc(C(=O)OC)c1
111,Cc1ccsc1C1N(Cc2ccccc2)CCN1Cc1ccccc1
101,O=C(NCc1ccco1)c1cc2nc(-c3ccc(Cl)c(Cl)c3)cc(C(F)(F)F)n2n1
105,CCN(Cc1ccccc1)S(=O)(=O)c1ccc(C(=O)Nc2sc3c(c2C(N)=O)CCC3)cc1
101,CCN1C(=O)CC(C(=O)Nc2ccc(Br)cc2)SC1=Nc1ccc(F)cc1 (configuration not stated)
116,N#CC1=C(N)n2c(s/c(=C\c3cccc(F)c3)c2=O)=C(C#N)C1c1cccc(F)c1 (configuration not stated)
106,O=C(CSc1nc2[nH]ncc2c(=O)n1-c1ccccc1Br)NCc1ccccc1Cl
97,CCc1ccc(S(=O)(=O)c2cnc(N3CCC(C)CC3)nc2N)cc1
112,Cc1ccc(C)c(Nc2nc3nonc3nc2Nc2cc(C)ccc2C)c1
103,Cc1ccc(NC(=O)Cn2cnc3sc(C(=O)Nc4nc5ccccc5s4)c(C)c3c2=O)cc1Cl
107,CC1CCN(CCNC(=O)C2CCCN(c3cc(=O)n(C)c(=O)n3C)C2)CC1 (configuration not stated)
98,CC(=O)N1CCCc2cc(S(=O)(=O)N3CCCC(C(=O)NCCN(C)C)C3)ccc21 (configuration not stated)
101,CC(C)NC(=O)N1CCC(N2CCN(Cc3ccccc3)C(=O)C2=O)CC1
107,CC1(C)CC(=O)C(C2=NC(C)(C)Cc3ccccc32)=C(O)C1
112,N#CC1=C(N)N(c2ccc(Br)cc2)C2=C(C(=O)CCC2)C1c1ccc([N+](=O)[O-])cc1 (configuration not stated)
107,O=C(c1cc2nc(-c3ccc(Br)cc3)cc(C(F)(F)F)n2n1)N1CCOCC1
102,O=C(CCc1ccccc1)N1CCc2c([nH]c3ccccc23)C1c1ccccc1 (configuration not stated)
108,O=C(c1nnc(-c2cc(S(=O)(=O)NC3CCCC3)c[nH]2)o1)N1CCCC1
108,CC(=O)OCC1OC2OC(C)(C)OC2C2OC(C)(C)OC12 (configuration not stated)
101,Cc1nnc(-c2csc(S(=O)(=O)N3CCCCC3)c2)o1
107,COc1ccc(-c2[nH]nc3c2C(c2cc(OC)c(OC)c(OC)c2)C(C#N)=C(N)O3)cc1 (configuration not stated)
102,O=C(CN1C2=NCCCN2c2ccccc21)c1ccc2c(c1)OCO2
100,Cc1nc2ncnn2c(NC2CCCC2)c1C
104,O=C(O)c1cccc(N2C(=O)C3C4c5ccccc5C(c5ccccc54)C3C2=O)c1 (configuration not stated)
99,Cc1ccccc1-n1c(=S)sc2c(=O)n(-c3ccc(F)cc3)c(=S)[nH]c21
105,CCN1CCN(CCCNC(=O)CC2CCN(S(=O)(=O)c3cccs3)CC2)CC1
105,O=S(=O)(Cc1ccccc1Cl)NCCc1n[nH]c(Cc2ccccc2)n1
103,Cc1c(CC(Cl)(Cl)Cl)c2c(n1O)CC(C)(C)CC2=O
105,CCc1ccc(-c2[nH]ncc2CN2CCCC2c2cc(C)on2)cc1 (configuration not stated)
122,N#Cc1c2n(c3c(=O)n(CC(=O)c4ccccc4)cnc13)CCCC2
102,CCOC(=O)c1ccccc1NC(=O)Cn1c(=O)c(CCC(=O)NC2CCCC2)nc2ccccc21
112,COc1ccc(Cl)cc1N1C(=O)C2C(c3ccc(Br)cc3)OC3(C(=O)c4ccccc4C3=O)C2C1=O (configuration not stated)
107,COc1cc(Nc2cc(-n3nc(C)cc3C)ncn2)cc(OC)c1
98,O=C(NCC1CCCCC1)C1CCN(c2cnc(N3CCOCC3)nc2)CC1
117,COc1ccc(OC)c(C2NC(=O)c3c(sc4c3CCCC4)N2)c1 (configuration not stated)
114,N#CC1=C(N)N(c2ccc(S(N)(=O)=O)cc2)C2=C(C(=O)CCC2)C1c1ccc([N+](=O)[O-])cc1 (configuration not stated)
97,CCOc1ccc(-c2csc(Nc3cc(C)ccn3)n2)cc1
97,Clc1ccc(Nc2nc(NC3CCCC3)nc3c2cnn3-c2ccccc2)cc1
109,CN(Cc1ccccc1)c1ccn(-c2nc(-c3ccccc3)oc2-c2ccccc2)c(=O)n1
104,CCOc1cccc2cc(C(=O)Nc3cc(C(=O)O)ccc3C)c(=Nc3ccc(C(=O)O)cc3)oc12
93,CCOc1cccc(C2Nc3ccc(C)cc3[C@H]3OCC[C@@H]23)c1OC (some centres not stated)
114,COc1ccc(Br)cc1/C=C1/N=C(c2cccc([N+](=O)[O-])c2C)OC1=O
106,O=C(NCc1ccc(F)cc1)c1ccc(Nc2ncc(-c3cccc(F)c3)cn2)cc1
103,CCOc1ccc(-n2c(=S)sc3c2nc(SCC(=O)N(CC)CC)n2c4ccccc4nc32)cc1
106,COCCNC(=O)c1nc(N2CCOCC2)c2oc3ccccc3c2n1
102,O=C(O)c1ccc2c(c1)-c1cc(C(=O)O)ccc1S2(=O)=O
105,Cn1nc(-c2nc(C3CC3)no2)c2c1CCN(C(=O)c1cc3c(s1)CCCC3)C2
105,COC(=O)C1C(=O)NC(SCC(=O)Nc2c(C)cc(C)cc2C)=C(C#N)C1c1ccccc1Cl (configuration not stated)
104,Cc1nn(-c2ccc3nnc(C)n3n2)c2c1C(c1ccc(Cl)cc1)CC(=O)N2 (configuration not stated)
102,CNC(=O)c1ccc(-c2nc3cc(NS(=O)(=O)c4cc(F)ccc4C)ccc3n2C)cc1
101,O=S(=O)(NC1CCCC1)c1ccc2c(c1)-c1oncc1CO2
108,c1ccc(-c2nc(-c3cccc4ccccc34)[nH]c2-c2ccccc2)cc1
111,CCOc1cc(/C=c2/sc3nc(-c4ccccc4OC(C)=O)nn3c2=O)ccc1OC(C)=O
103,CN1CCN(c2cc(N3CCN(C)CC3)c([N+](=O)[O-])cc2C2Nc3ccc4ccccc4c3C3=C2C(=O)CC(C)(C)C3)CC1 (configuration not stated)
109,COc1ccc(C2NC(=S)NC(C)=C2C(=O)Nc2ccccc2C)c(OC)c1 (configuration not stated)
108,Nn1cnc2c(c1=O)C1(CCCC1)Cc1ccccc1-2
101,Cc1c(CCNC(=O)c2ccc(F)cc2)sc2nc(-c3ccc(F)cc3)nn12

# The results go on:
GIV-Gai inh,mol
108,CN(C)c1ccc(C(=O)NCc2nc3cccnc3n2Cc2ccccc2)cc1
102,O=c1c2cc3c(cc2nc(SCc2nc(-c4cccc(F)c4)no2)n1-c1ccc(F)cc1)OCO3
108,COc1cc(C2Nc3ccc4ccccc4c3C3=C2C(=O)CC(C)(C)C3)ccc1OCc1ccc(Cl)cc1Cl (configuration not stated)
111,O=C1/C(=C/c2ccc(-c3ccc(Br)cc3)o2)C=C(c2ccccc2)N1c1ccc(Cl)cc1Cl
99,CCOC(=O)c1sc(=S)n(-c2c(C)cccc2C)c1N
105,CN1C(=O)CCc2cc(NC(=O)C3CC3)ccc21
112,Cn1c(=O)c([N+](=O)[O-])c(N2CCN(C(c3ccccc3)c3ccccc3)CC2)c2ccccc21
105,C=CCSc1nc(N2CCOCC2)c2c(c1C#N)CC(C)(C)SC2
104,Cc1ccc(-n2nc3c(c2NC(=O)c2ccc(S(=O)(=O)N(C)C)cc2)CS(=O)(=O)C3)cc1
99,Cc1cc(NC(=O)c2sc3ncnc(N4CCN(c5ccccc5F)CC4)c3c2C)no1
129,CCOc1ccc(-c2noc(Cn3cnc4c(cnn4-c4ccccc4)c3=O)n2)cc1OC
107,Cc1ccc(CNC(=O)CSc2nc3ccccc3c(=O)n2CC2CCC(C(=O)NCC3CCCO3)CC2)cc1 (configuration not stated)
105,CCCc1nc2c(c3c1[nH]c1ccc(Br)cc13)C(=O)CC(C)(C)C2
106,CN1C(=O)CC(C(=O)Nc2ccccc2)SC1=Nc1ccc(Br)cc1 (configuration not stated)
105,CC12COC3(C(=O)N4CCCCCC4)CC1CCC32C (configuration not stated)
106,CCN1C(=O)COc2ccc(-c3noc(C4(c5ccc(OC)cc5)CC4)n3)cc21
102,Cc1ccccc1CNC1=NCCNC12CCC(C)CC2 (configuration not stated)
99,CCOC(=O)N1CCC2(CC1)N=C(c1ccc(C)cc1)CC(c1cc(Cl)ccc1O)N2 (configuration not stated)
106,CC1CCCCN1C(=O)c1ccc(N2CC3CC(C2)c2cccc(=O)n2C3)c(NC(=O)c2ccc(Br)o2)c1 (configuration not stated)
105,COc1ccc(-n2c(SCC(=O)Nc3cc(OC)ccc3OC)nc3n[nH]c(C)c3c2=N)cc1
108,CC(=O)C12c3ccccc3C(c3ccccc31)C1C(=O)N(c3cccc(C(=O)O)c3)C(=O)C12 (configuration not stated)
114,COC(=O)c1c(-c2ccc(F)cc2)noc1N1CCCCC1
109,CCOCCCNC(=O)N1CCCC1c1cc(C)no1 (configuration not stated)
120,CCN(C(=O)c1ccc(N2CC3CC(C2)c2cccc(=O)n2C3)c(NC(=O)c2ccc(OC)cc2)c1)c1cccc(C)c1 (configuration not stated)
99,CCCn1c(=O)c(-c2ccc(C(=O)Nc3cccc(C(=O)OC)c3)cc2)nc2ccccc21
105,Cc1ccc(Nc2nc3nonc3nc2N/N=C/c2ccc(Cl)cc2Cl)cc1C
103,Cc1nn(-c2nc3ccccc3[nH]2)c2c1C(c1ccncc1)CC(=O)N2 (configuration not stated)
97,COc1ccc(N2CCN(S(=O)(=O)c3cc(-c4nc(C)cs4)cs3)CC2)cc1
113&111,O=c1nc(-c2ccccc2)c(-c2ccccc2)n[nH]1
103,CCCOCCOC(=O)C1=C(C)NC2=C(C(=O)CC(C)(C)C2)C1c1cc2c(cc1Br)OCO2 (configuration not stated)
103,COc1cc(Nc2nc(-c3nnn(-c4ccc(F)cc4)c3C)ns2)cc(OC)c1
108,Cc1cccc(-n2nc3c(c2NC(=O)c2ccc(S(=O)(=O)N4CCCC4)cc2)CSC3)c1C
106,Cc1ccc(-c2nc(C)cc(SCC(=O)Nc3ccccc3Br)n2)cc1
105,O=C(NCc1ccccn1)/C(=C/c1cn(-c2ccccc2)nc1-c1ccc(Cl)cc1)NC(=O)c1ccc(Cl)cc1Cl
101,Cc1nc(N2CCN(c3ccccn3)CC2)c2c(C)c(C(=O)Nc3ccc(F)cc3F)sc2n1
104,Cc1ccccc1NC(=O)Nc1nnc(CC(=O)NCc2ccccc2)s1
108,CCCCC1(CC(=O)Nc2ccc(F)cc2)C(=O)N(c2ccccc2)N(c2ccccc2)C1=O
121,O=C(CCCOc1ccc(Cl)cc1Cl)NC1=NN(c2ccccc2)C(=O)C1
105,CCSc1nnc(-c2nn(C)c3c2CN(S(=O)(=O)CC)CC3)n1CC
107,O=C(CN1C(=O)CC(c2ccc(Cl)cc2)=Nc2cccnc21)Nc1ccc2c(c1)OCCO2
125,COc1ccc(C2CC(=O)Nc3c2ccc2ccccc32)cc1OCc1ccccc1 (configuration not stated)
106,CCCOC(=O)CSc1nc(N)c(C#N)c(-c2ccccc2Cl)c1C#N

# Given in CSV form: part of the list above.
SMILES,GIV-Gai inh
Cc1ccc(-c2nc(C)cc(SCC(=O)Nc3ccccc3Br)n2)cc1,106
Cc1cccc(-n2nc3c(c2NC(=O)c2ccc(S(=O)(=O)N4CCCC4)cc2)CSC3)c1C,108

# Compound activity deposited in PubChem by ICCB-Longwood Screening Facility, Harvard Medical School.

# Only part of the results is shown; rates above refer to the full screens.
